SARS PLpro yeast: inhibitors of SARS-CoV papain-like protease in yeast; 330,000 compounds, 0.19% hits; Potency, µM (doses to about 32.9 µM), for the others: at the highest dose activity, positive = growth rescue; S. cerevisiae expressing SARS-CoV PLpro, growth rescue; control for the full effect not named in the record; active means well fitted rising curve with a large enough effect; inconclusive means small, poorly fitted or top-dose-only effect; inactive means no such curve, though single readings can be large or run the other way; note: 0% is about no effect; nearly all actives have a fitted effect of over 55% in size; growth read by luminescence after 48 h
StopGo reporter: lowers the luciferase signal of an FMDV 2A StopGo reporter; human cells with a luciferase reporter of 2A StopGo recoding; control for the full effect not named in the record; Potency, µM (titrated, usually from 57.9 µM), inactives show top-dose signal change, negative = less light; 410,000 compounds, 1.2% hits; active = well fitted falling curve with a large enough effect; inconclusive = small, poorly fitted or top-dose-only effect; inactive = no such curve, though single readings can be large or run the other way; tested in HEK293T cells; note: % is set by controls: 0 for no effect and ±100 for the full control effect; nearly all actives have a fitted effect of over 45% in size; luciferase light after 4 h
RE007 growth inh: less growth of the S. pombe RE007 Vpr strain. 360,000 compounds, 0.21% hits. AID 651644. S. pombe RE007 Vpr strain, BacTiter-Glo ATP luminescence, 24 h; control for the full effect not named in the record. Potency, µM (series often up to 92.2 µM), inactives show at the highest dose activity change, negative = less growth; active = well fitted falling curve with a large enough effect; inconclusive = small, poorly fitted or top-dose-only effect; inactive = no such curve, though single readings can be large or run the other way;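 note: % is set by controls: 0 for no effect and ±100 for the full control effect; nearly all actives have a fitted effect of over 50% in size; the assay follows cell death caused by Vpr and the record does not say whether a fall means rescue or toxicity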
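Fission yeast RE007 carrying one integrated HIV-1 vpr copy, seeded at OD 0.01 in PMG+AL medium with 23 nL pinned compound. Grown 24 h at 30 degrees; viability read by BacTiter-Glo luminescence after 5 min.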
Active calls of the source: *; ? = inconclusive; [ ] = another dose, or the depositor's remark. Potency is the fitted concentration of half-maximal effect. A portion of the library. The share of hits here may be higher or lower than overall.

SMILES	SARS PLpro yeast	StopGo reporter	RE007 growth inh
CCCCC(=O)Nc1cccc(NC(=O)c2cccc(Br)c2)c1	-1%	1%	2%
CCOC(=O)C1=CN(Cc2ccco2)S(=O)(=O)NC1CC (stereo not drawn)	-4%	-21%	-8%
Cc1cccc(NC(=O)c2ccc(S(=O)(=O)NCc3ccco3)cc2)n1	-19%	13%	5%
CC(C(=O)Nc1ccc(Br)cc1)N(C)CC(=O)NCc1ccco1 (stereo not drawn)	11%	-12%	-7%
CCc1cc2c(COC(=O)c3c(C)noc3C)cc(=O)oc2cc1O	1%	?	10%
NC(=O)c1ccc(Cn2c(C(=O)c3ccc(Cl)cc3)c3ccccc3[n+]2[O-])cc1	2%	-13%	11%
CC1Nc2ncnc(N3CCN(c4ccccc4)CC3)c2N(Cc2ccccc2)C1=O (stereo not drawn)	0%	-11%	-7%
CC1CCN(C(=O)c2ncn(C)c2C(=O)N2CCC(C)CC2)CC1	0%	-14%	0%
COc1cccc(CC(=O)OCC(=O)N(C)CC(=O)Nc2ccccc2Cl)c1	0%	-5%	-3%
O=c1oc2ccccc2c2c1cnc1ccccc12	-5%	-12%	?
Cc1c(CNCCC2=CCCCC2)c(C(=O)O)c(C)n1Cc1ccccc1	2%	-8%	0%
Cc1c(C(=O)N2CCN(c3ccccc3)CC2)oc2c(Cl)cccc12	3%	-13%	-24%
Cc1ccc(COC(=O)c2cc(S(=O)(=O)N3CCOCC3)ccc2C)cc1	-8%	-28%	-1%
CN1CCN(S(=O)(=O)c2cccc(C(=O)N(C)Cc3cccs3)c2)CC1	0%	-3%	-5%
COCC(=O)N(C)C[C@H]1N[C@@](Cc2ccccc2)(C(=O)OC)[C@H]2C(=O)N(Cc3ccccc3)C(=O)[C@@H]12	-7%	-6%	11%
CCCCN(C(=O)CSCC(=O)Nc1ccc(C)cc1)c1c(N)n(CC(C)C)c(=O)[nH]c1=O	-3%	-15%	-7%
COc1ccc(/C=C/C(=O)OCC(=O)NCCC2=CCCCC2)cc1OC	-5%	-25%	8%
CC(OC(=O)/C=C/c1ccc2ccccc2n1)C(=O)N(C)c1ccccc1 (stereo not drawn)	-1%	-26%	39%
CN(C)/C=C/C(=O)c1ccc(-n2cccc2)cc1	-15%	83%[activator]	?
O=C(NCC(=O)N1CCN(C(=O)c2ccccc2)CC1)c1ccc(Cl)cc1Cl	0%	-28%	-8%
CN=C(Nc1cccc(S(=O)(=O)N2CCOCC2)c1)c1ccccc1	0%	-11%	-4%
COCCN(Cc1ccccc1)C(=O)Cc1ccc(S(=O)(=O)N2CCOCC2)s1	0%	0%	12%
CCCCN(C(=O)c1cc2c(s1)CCCCC2)c1c(N)n(CCC)c(=O)[nH]c1=O	-2%	-5%	-3%
Cc1ccc(C(=O)OCC(=O)Nc2cc(C(C)(C)C)no2)c(C)c1	-4%	1%	-11%
CCOc1ccc(N(CC(=O)Nc2nccs2)S(=O)(=O)c2c(C)[nH]c(=O)[nH]c2=O)cc1	7%	15%	1%
COc1ccc(N2CCN(CCCNC(=O)C3CCCN(S(=O)(=O)c4c(C)n[nH]c4C)C3)CC2)cc1 (stereo not drawn)	2%	-25%	-4%
COc1ccc2[nH]c3c(c2c1)CCN1C(=O)C(CC(=O)NCCC2=CCCCC2)C[C@H](C(=O)N2CCOCC2)[C@@]31C (stereo partly drawn)	-4%	-10%	8%
COc1ccc(/C=C/C(=O)OCC(=O)NC2CC2)c(OC)c1	1%	-3%	2%
CCN(CC)C(=O)c1nc[nH]c1C(=O)N(CC)CC	-3%	-10%	5%
COCCCNC(=S)NCCc1ccc(F)cc1	3%	54%[activator]	2%
CC1CCCC(C)N1C(=O)CN1C(=O)c2ccccc2S1(=O)=O (stereo not drawn)	1%	7%	1%
CN(Cc1ccccc1)C(=O)CNC(=O)C12CC3CC(CC(C3)C1)C2	-8%	-11%	-2%
CCSC1=NCCN1S(=O)(=O)c1ccc2ccccc2c1	-4%	5%	7%
C=CC[C@H](CC(=O)N(CCO)Cc1ccccc1)C(=O)N[C@H](COC(=O)[C@@H](CC=C)Cc1ccc(F)cc1)C(C)(C)C	2%	?	-6%
COc1ccccc1-n1cnnc1SCC(=O)N1CCN(C(=O)c2ccco2)CC1	4%	-12%	-13%
COc1ccc(C)cc1NC(=O)CN1C(=O)C(=O)N(C2CCCC2)C1=O	-6%	-13%	18%
NC(=O)C1CCN(C(=O)C2CC(=O)N(c3ccc4c(c3)OCCO4)C2)CC1 (stereo not drawn)	8%	3%	0%
COc1ccc(N2CCN(C(=O)CNC(=O)c3ccc4ccccc4c3)CC2)cc1	-3%	-15%	7%
COC(=O)[C@]1(Cc2ccccc2)N[C@H](CN(C)S(=O)(=O)c2ccc(C(F)(F)F)cc2)[C@@H]2C(=O)N(Cc3ccccc3)C(=O)[C@@H]21	1%	-16%	2%
CN(CCO)c1ccc(C(C(=O)c2ccccc2)c2ccc(N(C)CCO)cc2)cc1	1%	14%	-6%
COC(=O)c1ccc(-n2c(C)cc(C(=O)CSc3cccc[n+]3[O-])c2C)cc1	2%	-9%	1%
O=C(CSc1nc2ccccc2c(=O)n1CCCN1CCOCC1)Nc1ccc(F)c(Cl)c1	-4%	?	25%
O=C(COC(=O)c1cc(=O)[nH]c2ccccc12)NCc1ccc(F)cc1	5%	16%	-5%
CCN1CCN(c2ccc(S(=O)(=O)N3CCCCC3)cc2N)CC1	-1%	-3%	-11%
O=C(NNC(=O)c1ccc2c(=O)n3c(nc2c1)CCC3)c1ccc(Cl)cc1	-8%	-6%	11%
CC(=O)C(Cc1ccccc1)NC(=O)CCl (stereo not drawn)	1%	-15%	14%
CSc1ncccc1C(=O)OCC(=O)NC1CCC(C)CC1 (stereo not drawn)	5%	21%	16%
CCNC(=S)NNC(=O)c1ccncc1	3%	1%	12%
CN(Cc1ccc(OC(F)F)cc1)C(=O)C1CCN(S(=O)(=O)c2ccc3c(c2)OCCO3)CC1	2%	?	2%
Cn1ccnc1SCC(=O)Nc1ccc2c(c1)OCO2	0%	19%	-3%
COc1ccc(CN(C)C(=O)c2ccc(NS(=O)(=O)c3ccc4[nH]c(=O)[nH]c4c3)cc2)c(OC)c1OC	6%	-6%	2%
C=CC(COCc1ccccc1)N([C@@H](Cc1ccccc1)C(=O)OC)S(=O)(=O)c1ccccc1Br (stereo partly drawn)	-1%	?	-1%
CCN1C(=O)[C@H]2[C@@H](c3ccc(-c4ccc(OC)cc4)cc3)N3CCC[C@@]3(C(=O)OC)[C@H]2C1=O	0%	-9%	9%
COc1cccc(CNC(=O)c2cc(=O)[nH]c3ccc(S(=O)(=O)N4CCOCC4)cc23)c1	-2%	-6%	0%
CC(OC(=O)c1ccc(F)c(S(=O)(=O)N2CCOCC2)c1)C(=O)NCC1CCCCC1 (stereo not drawn)	2%	-6%	0%
NC(=O)C1CCN(C(=O)C(Cc2ccccc2)NC(=O)c2ccccc2)CC1 (stereo not drawn)	1%	-27%	0%
CCCCCCSc1ccc([C@H]2N[C@@](Cc3ccccc3)(C(=O)OC)[C@H]3C(=O)N(CC)C(=O)[C@@H]23)cc1	1%	?	3%
Cc1cc(C(=O)COC(=O)c2cccnc2Cl)c(C)n1C	-1%	-45%	-4%
O=C(CN1C(=O)NC2(CCCCCC2)C1=O)Nc1ccc(Br)cc1Br	6%	-16%	8%
COCCn1c(=O)[nH]c2cc(C(=O)Nc3cccc(F)c3)ccc2c1=O	2%	44%[activator]	-11%
More compounds
SMILES	SARS PLpro yeast	StopGo reporter	RE007 growth inh
COc1ccc(C(c2c(NC(C)=O)sc3c2CCCC3)N2CCN(CCO)CC2)cc1OC (stereo not drawn)	0%	-14%	4%
Cc1c(Cl)cccc1NC(=O)CNC(=O)CCS(=O)(=O)c1ccc(F)cc1	-3%	-5%	10%
CC1CN(C(=O)c2ccccc2OCc2ccc(Cl)cc2Cl)CC(C)O1 (stereo not drawn)	-2%	-22%	3%
COc1ccc(C2=NCCn3nc4cc(OC)ccc4c32)cc1	2%	31%[activator]	-19%
Cc1nc(SCC(=O)NCC2CCCO2)nc(C)c1C (stereo not drawn)	0%	9%	3%
CCOC(=O)C(CC)/C(C)=N\NC(=O)CCC(=O)Nc1ccc(Cl)cc1Cl (stereo not drawn)	-5%	4%	10%
CCC1Nc2ncnc(N3CCOCC3)c2N(Cc2ccc(C)cc2)C1=O (stereo not drawn)	0%	-12%	3%
C[C@H](NC(=O)c1ccccc1)C(=O)OCC(=O)Nc1sccc1C(N)=O	-1%	-21%	-7%
O=C1N[C@@H](c2ccccc2)COC(=O)[C@@H](Cc2ccc(F)cc2)C/C=C\C[C@H]1CC(=O)N(CCO)Cc1ccccc1	5%	?	0%
CCOC(=O)[C@H]1[C@H]2COc3ccc(Cl)cc3[C@@H]2N2C(=O)CN(Cc3ccc(Cl)cc3)C(=O)[C@@]12C	-5%	?	14%
CC(C)(C)OC(=O)N1CCC(NC(=O)c2nc[nH]c2C(=O)NCc2ccccc2)CC1	0%	12%	-19%
N#Cc1ccccc1S(=O)(=O)N1CCN(C(=O)CCc2ccccc2)CC1	5%	-5%	5%
CCOc1cc(/C=C(\C#N)C(=O)NCc2cccnc2)ccc1O	1%	1%	38%
CC1CCCC(NC(=O)COC(=O)c2ccc(Cl)nc2)C1C (stereo not drawn)	1%	-4%	-4%

22 compounds out of the list, sorted by formula weight, low to high.
SMILES	SARS PLpro yeast	StopGo reporter	RE007 growth inh
CC(=O)C(Cc1ccccc1)NC(=O)CCl (stereo not drawn)	1%	-15%	14%
COCCCNC(=S)NCCc1ccc(F)cc1	3%	54%[activator]	2%
COc1ccc(/C=C/C(=O)OCC(=O)NC2CC2)c(OC)c1	1%	-3%	2%
O=C(COC(=O)c1cc(=O)[nH]c2ccccc12)NCc1ccc(F)cc1	5%	16%	-5%
COCCn1c(=O)[nH]c2cc(C(=O)Nc3cccc(F)c3)ccc2c1=O	2%	44%[activator]	-11%
CC(OC(=O)/C=C/c1ccc2ccccc2n1)C(=O)N(C)c1ccccc1 (stereo not drawn)	-1%	-26%	39%
CCC1Nc2ncnc(N3CCOCC3)c2N(Cc2ccc(C)cc2)C1=O (stereo not drawn)	0%	-12%	3%
NC(=O)C1CCN(C(=O)C2CC(=O)N(c3ccc4c(c3)OCCO4)C2)CC1 (stereo not drawn)	8%	3%	0%
NC(=O)C1CCN(C(=O)C(Cc2ccccc2)NC(=O)c2ccccc2)CC1 (stereo not drawn)	1%	-27%	0%
CC1CN(C(=O)c2ccccc2OCc2ccc(Cl)cc2Cl)CC(C)O1 (stereo not drawn)	-2%	-22%	3%
Cc1c(Cl)cccc1NC(=O)CNC(=O)CCS(=O)(=O)c1ccc(F)cc1	-3%	-5%	10%
CCCCN(C(=O)c1cc2c(s1)CCCCC2)c1c(N)n(CCC)c(=O)[nH]c1=O	-2%	-5%	-3%
O=C(NCC(=O)N1CCN(C(=O)c2ccccc2)CC1)c1ccc(Cl)cc1Cl	0%	-28%	-8%
COc1ccccc1-n1cnnc1SCC(=O)N1CCN(C(=O)c2ccco2)CC1	4%	-12%	-13%
CCN1C(=O)[C@H]2[C@@H](c3ccc(-c4ccc(OC)cc4)cc3)N3CCC[C@@]3(C(=O)OC)[C@H]2C1=O	0%	-9%	9%
CCOc1ccc(N(CC(=O)Nc2nccs2)S(=O)(=O)c2c(C)[nH]c(=O)[nH]c2=O)cc1	7%	15%	1%
O=C(CN1C(=O)NC2(CCCCCC2)C1=O)Nc1ccc(Br)cc1Br	6%	-16%	8%
COc1ccc(C(c2c(NC(C)=O)sc3c2CCCC3)N2CCN(CCO)CC2)cc1OC (stereo not drawn)	0%	-14%	4%
CCCCN(C(=O)CSCC(=O)Nc1ccc(C)cc1)c1c(N)n(CC(C)C)c(=O)[nH]c1=O	-3%	-15%	-7%
CN(Cc1ccc(OC(F)F)cc1)C(=O)C1CCN(S(=O)(=O)c2ccc3c(c2)OCCO3)CC1	2%	?	2%
COc1ccc(CN(C)C(=O)c2ccc(NS(=O)(=O)c3ccc4[nH]c(=O)[nH]c4c3)cc2)c(OC)c1OC	6%	-6%	2%
COC(=O)[C@]1(Cc2ccccc2)N[C@H](CN(C)S(=O)(=O)c2ccc(C(F)(F)F)cc2)[C@@H]2C(=O)N(Cc3ccccc3)C(=O)[C@@H]21	1%	-16%	2%

From PubChem BioAssay
